# High-throughput results as filed in PubChem.
# miR-21 FLuc: qHTS Assay for Modulators of miRNAs and/orActivators of miR-21; AID 2288, 2010; HeLa miR-21 FLuc reporter, luciferase, 48 h; Potency, µM (doses to about 38.3 µM), inactives show at the highest dose reporter change, positive = more light; 340,000 tested, under 10 active; active = well fitted rising curve with a large enough effect; inconclusive = small, poorly fitted or top-dose-only effect; inactive = no such curve, though single readings can be large or run the other way;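 note: % of control where 0% means no effect; miR-21 action dims this reporter so a rising signal means less miR-21 action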
#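 HeLa cells endogenously expressing miR-21, stably carrying CMV-driven firefly luciferase with a downstream miR-21 binding site, 2000 cells/well. Titrations up to approximately 40 uM, 48 hours; luciferase luminescence read.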
# Rango complex inh: qHTS Assay for Inhibitors of Rango (Ran-regulated importin-beta cargo) - Importin beta complex formation; Rango CFP/YFP FRET sensor + importin beta, 45 min; Importin subunit beta-1 (Homo sapiens), Q14974; 340,000 tested, 0.031% active; Potency, µM (series often up to 92.2 µM), without a hit: top-dose inhibition of complex formation; active = rising FRET ratio curve, often small or poorly fitted; inconclusive = mostly compound fluorescence or quenching in the first reads; inactive = flat curves in all reads;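 note: potency is the fitted concentration of half-maximal effect; 0% = DMSO wells and 100% = buffer wells lacking importin beta; nearly all actives have a fitted effect of over 15% in size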
#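 FRET biosensor (snurportin 1 IBB flanked by EYFP and cerulean), 50 nM, with compound 5 min, then 0.125 microM importin beta in PBS, 1 mM DTT, 0.02% Tween-20, 0.1% BSA. CFP/YFP ratio read after 45 min at room temperature; pre-read flags interference.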
# Rango dissoc inh: qHTS Assay for Inhibitors of RanGTP induced Rango (Ran-regulated importin-beta cargo) - Importin beta complex dissociation; Potency, µM (highest dose often 46.1 µM), for the others: top-dose activity change, negative = inhibition; 340,000 tested, 0.071% active; Biochemical FRET Rango-importin beta, RanGTP-induced dissociation; active means falling FRET ratio curve, often poorly fitted, with flat reads before Ran was added; inconclusive means other falling curves, or compound fluorescence or quenching; inactive means flat or rising ratio curve;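 note: potency is the fitted concentration of half-maximal effect; % of control where 0% means no effect; nearly all actives have a fitted effect of over 45% in size; -100% = wells without RanGTP and RCC1; the record marks most hits as doubtful in a second field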
#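 FRET read at 45 min, room temperature: inhibitors block the CFP/YFP signal rise when RanGTP (0.6 uM Ran, 2 mM GTP, 0.2 uM RCC1) frees Rango (0.1 uM) from importin beta (0.25 uM). Pre-read after 5 min compound exposure flags interference.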
# GLA inh pH 4.5: qHTS Assay for Inhibitors of Human alpha-Galactosidase at pH 4.5. AID 1467, 2008. purified enzyme, 4-MU-alpha-Gal fluorescence, pH 4.5. activity change, negative = inhibition, % at 105 µM. 230,000 tested, under 10 active. Alpha-galactosidase A (Homo sapiens), P06280; inconclusive = small, poorly fitted or top-dose-only inhibition, or a rising curve; inactive = flat fitted curve, though single readings scatter; no compound was filed as active;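 note: 0% = full activity with enzyme and -100% = basal without enzyme; dose as in the result columns while the protocol names 77 µM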
# Target sequence (P06280 whole entry, looked up): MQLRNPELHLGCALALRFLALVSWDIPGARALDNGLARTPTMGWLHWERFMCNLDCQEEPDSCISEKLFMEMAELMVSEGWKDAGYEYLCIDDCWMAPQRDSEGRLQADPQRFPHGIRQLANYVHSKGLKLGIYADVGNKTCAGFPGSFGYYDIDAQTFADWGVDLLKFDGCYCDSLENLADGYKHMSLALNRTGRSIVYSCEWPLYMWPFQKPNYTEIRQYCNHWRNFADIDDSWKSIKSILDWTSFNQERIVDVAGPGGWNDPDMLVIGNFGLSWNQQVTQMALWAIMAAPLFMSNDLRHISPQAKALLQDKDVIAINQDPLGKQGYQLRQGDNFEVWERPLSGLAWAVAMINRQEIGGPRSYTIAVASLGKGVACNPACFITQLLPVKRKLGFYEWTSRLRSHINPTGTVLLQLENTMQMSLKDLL
# * marks the source's active call; other numbers are inactive results; ? = inconclusive; nt = not tested or not shown; & = joins results of further samples.
SMILES,miR-21 FLuc,Rango complex inh,Rango dissoc inh,GLA inh pH 4.5
CCCCCOCC1CC(C/C(C)=N/NC(N)=S)C(=O)O1 (centres undefined),14%,0.2%,-2%,2
CCCCNC(=O)CC1N=C2c3ccccc3N=C(SCC(=O)Nc3cccc(C)c3)N2C1=O (centres undefined),0%,-0.9%,1%,-2
CC1CN(C(=O)/C(=C/c2ccco2)NC(=O)c2ccccc2)CC(C)O1 (centres undefined),-2%,0.7%,3%,nt
CC1CCN(N=Nc2nc3c([nH]2)c(=O)n(C)c(=O)n3C)CC1,nt,2.1%,-1%,nt
C[C@H](CO)N1C[C@H](C)[C@@H](CN(C)Cc2ccc(C(=O)O)cc2)Oc2c(NS(=O)(=O)c3cccs3)cccc2C1=O,nt,4.1%,10%,nt
COc1ccc(CS(=O)(=O)c2ncn[nH]2)cc1,-4%,7.6%,-1%,nt
O=[N+]([O-])c1ccccc1OCCOCCOc1cccc2cccnc12,-13%,3.9%,16%,0
CCOC(=O)C1(Cc2ccccc2)CCN(Cc2cccc(OC)c2O)CC1,1%,0.8%,24%,-3
Cc1ccc2c(c1)C(c1ccccc1)N(C(=O)c1ccc(S(=O)(=O)N3CCOCC3)cc1)CC(=O)N2 (centres undefined),-11%,0.6%,6%,-12
O=C(Nc1ccc(F)cc1)C(=O)c1c(O)[nH]c2ccc([N+](=O)[O-])cc12,-18%,0.1%,-9%,6
CCC(CO)Oc1cc(NC(=O)c2ccccc2[N+](=O)[O-])c2ncn(C(C)C)c2c1 (centres undefined),nt,1.1%,-19%,nt
CCN(C(=O)Cn1c(=O)oc2ccccc21)c1ccc(C)c(C)c1,-7%,0.5%,2%,nt
COc1ccc(/C=N/Nc2cc(C)nc3c(C)cccc23)cc1,?,?,?,nt
O=C(OCc1ccc(Cl)cc1Cl)c1ccncc1,2%,0.4%,-8%,-3
O=C(Nc1ccccc1N1CCOCC1)c1ccc2nc[nH]c2c1,1%,-0.7%,-5%,6
O=C(O)c1cc(C(=O)O)cc(-c2ccc(/C=c3/sc4nc5ccccc5n4c3=O)o2)c1,0%,?,?,5
CC(=O)CCSc1nnc(-c2cccc(S(=O)(=O)N3CCOCC3)c2)o1,nt,-1.7%,-12%,nt
COC(=O)c1ccc(C(=O)OC)c(NC(=S)N2CCN(c3cc(Cl)ccc3C)CC2)c1,-1%,-1.7%,?,-8
COc1ccc(NC(=O)CN(c2cc(C)cc(C)c2)S(=O)(=O)c2c(C)n[nH]c2C)cc1,7%,-2.2%,16%,3
CCN(CC)CCNC(=O)C1(c2ccccc2)CCCCC1,nt,-2.6%,0%,nt
COc1ccc(-n2nc3c(c2NC(=O)CCCl)CSC3)cc1,-1%,-4.5%,-5%,nt
Cc1ccn(CC(=O)NC2CC(C)(C)Cc3c2cnn3-c2ccc(F)cc2)n1 (centres undefined),7%,-0.4%,-2%,nt
CCCCc1ccc(S(=O)(=O)N/N=C(/C)c2ccncc2)cc1,14%,1.5%,-1%,nt
CSc1ccc(NC(=O)c2cccnc2)cc1C#N,-39%,-0.4%,-9%,-6
C#Cc1ccc([C@H]2C=C(C(=O)N3CCN(Cc4ccc5c(c4)OCO5)CC3)O[C@@H](OCC)[C@@H]2CCCO)cc1,8%,0.8%,11%,-7
Cc1nnc(NC(=O)CSc2nnc(C)n2Cc2ccccc2)s1,2%,-3.4%,1%,-13
c1ccc2c(N3CCOCC3)nc(-c3ccncc3)nc2c1,-3%,-1.7%,-3%,0
O=C(/C=C/c1cccc(F)c1)OCC(=O)c1ccc[nH]1,nt,-0.5%,-24%,nt
CCc1ccc(Nc2nnc(SCC(=O)Nc3sccc3C(N)=O)s2)cc1,-3%,-5.4%,-1%,1
C/C(=N/NS(=O)(=O)c1ccc(C)c(C)c1)c1c[nH]c2ccccc12,0%,5.0%,16%,nt
CCCOc1nc2c(c(=O)n(C)c(=O)n2C)n1C,10%,0.0%,4%,4
CC(=O)Oc1cc(C(=O)OCC(=O)N2CCc3ccccc3C2)cc(OC(C)=O)c1OC(C)=O,nt,0.7%,0%,nt
CCOC(=O)CNC(=S)N(Cc1ccco1)Cc1ccccc1Cl,-2%,-3.2%,7%,nt
Cc1ccc(-c2c[n+](Cc3ccc(Cl)cc3)c3n2CCC3)cc1,?,-4.6%,11%,-2
COC(=O)c1cccc(NC(=O)C2CCCN2C(=O)c2cccs2)c1 (centres undefined),nt,1.4%,6%,nt
COC(=O)C1=C(C)N(c2ccc(OC)cc2)C(C)=C(C(=O)OC)C1c1ccc(OC)cc1,4%,0.8%,5%,-8
CCCCn1c(N)c(NCCC)c(=O)[nH]c1=O,1%,?,?,9
Cc1ccc(Cl)cc1NC(=O)C1CCCCC1C(=O)O (centres undefined),1%,0.4%,-15%,5
Cc1cc(/C=N/n2cnnc2)c(C)n1-c1ccc(OCc2ccccc2F)cc1,-1%,0.3%,-3%,2
CCc1nc2ccccc2n1CC(O)COCC1CC=CCC1 (centres undefined),-2%,0.6%,25%,10
CCOCCn1ccc2c(OCC(=O)Nc3ccc(OC)c(OC)c3)cccc2c1=O,nt,-0.1%,-15%,nt
COC(=O)Nc1nnc(Cc2ccccc2)s1,-17%,-1.8%,1%,-7
CCc1ccc(N2CC(C(=O)N/N=C/c3ccccc3OC)CC2=O)cc1 (centres undefined),0%,3.2%,-8%,nt
Cc1cc(C)c(C#N)c(SCc2ccc3c(c2)OCO3)n1,-23%,-1.9%,?,-12
COC(=O)c1ccn(CSc2c(F)c(F)cc(F)c2F)n1,nt,1.4%,-5%,nt
CCCCNc1cc(Cl)nc(N)n1,-2%,?,?,-3
CN(CC(=O)Nc1ccccc1Br)C(=O)CCc1ccccc1,-1%,0.6%,10%,nt
Fc1ccc(-n2c(-c3ccco3)nc3nc4ccccc4nc32)cc1,0%,-0.7%,-5%,?
CCCCCCOc1ccc(N2C(=O)CC(NCCc3ccc(S(N)(=O)=O)cc3)C2=O)cc1 (centres undefined),-2%,3.3%,-3%,-2
Cc1cc(=O)oc2cc(OC(=O)CCCCCN3C(=O)c4ccccc4C3=O)ccc12,-1%,-6.6%,?,4

# (more compounds)
SMILES,miR-21 FLuc,Rango complex inh,Rango dissoc inh,GLA inh pH 4.5
Cc1ccc(-n2nnc3c(SCC(=O)NCc4ccco4)ncnc32)cc1,-3%,-1.6%,-3%,1
O=C(C1CC(c2ccc(F)cc2)=NO1)N1CCN(c2ccccc2)CC1 (centres undefined),-1%,2.2%,-16%,-2
CSCCC(C(=O)OCC(=O)c1ccc(C)c(C)c1)N1C(=O)c2cc(Cl)c(Cl)cc2C1=O (centres undefined),-1%,-2.5%,-4%,2
CC(C)(C)[C@@H]1COC(=O)[C@@H](Cc2ccc(F)cc2)CC/C=C\C[C@@H](CC(=O)N(CCO)Cc2ccccc2)C(=O)N1,nt,-2.3%,?,nt
COc1ccccc1NC(=O)C(C)NS(=O)(=O)c1ccc(Cl)cc1 (centres undefined),-3%,?,-8%,-3
COc1ccc(NC(=O)Nc2cccc3c2O[C@H](CN(C)S(=O)(=O)c2ccc(OC)cc2)[C@@H](C)CN([C@H](C)CO)C3=O)cc1,nt,-1.3%,14%,nt
COC(=O)c1sccc1NN1C(=O)c2ccccc2C1=O,-11%,5.7%,-1%,-16
Cc1ccc(OCC(=O)NNc2c3ccccc3nc3ccccc23)cc1,27%,-2.9%,3%,-8
O=C(C1CC1)n1cc(C(=S)N2CCOCC2)c2ccccc21,-6%,0.2%,1%,-10
O=S(=O)(Nc1ncnc2sc3c(c12)CCC3)c1ccc(Cl)s1,-2%,?,-13%,-16
O=C(NCc1ccccc1)c1onc(CSc2nc3ccccc3[nH]2)c1C(=O)NCc1ccccc1,11%,-1.1%,3%,nt
CCCCCCCC(=O)Nc1cc(C(=O)NCCC)ccc1N1CCC2(CC1)CC(c1cccc(Br)c1)=NO2,nt,-0.7%,-9%,nt
Cc1csc(=O)n1CCC(=O)OCC(=O)Nc1ccc(S(N)(=O)=O)cc1,nt,2.0%,-4%,nt
COc1cc(CN2CCN(c3ccccc3F)CC2)c([N+](=O)[O-])cc1OC,-6%,2.7%,-5%,-2
CCOC(=O)/C(C#N)=N/Nc1ccc(S(=O)(=O)Nc2cc(OC)nc(OC)n2)cc1,nt,-4.5%,?,nt
CNc1nnc(-c2cc3cc(Cl)ccc3oc2=O)s1,-37%,?,?,-7
Cc1ccc(OCCn2c(NC(=O)c3ccco3)nc3ccccc32)cc1,-4%,-5.2%,6%,-1
Cc1cc(C(=O)OCC(=O)NC2CC2)c2ccccc2n1,nt,?,9%,nt
COC(=O)c1ccc(C(C(=O)NC2CCCCC2)N(C(=O)Cc2cccs2)C2CC2)cc1 (centres undefined),0%,-0.2%,21%,8
Cc1ccc(C)c(NC(=O)CN(C)C(=O)c2cc(S(=O)(=O)N3CCOCC3)ccc2N2CCCC2)c1,-1%,-3.4%,12%,nt

# In the list so far, these have a furan ring, fused or not:
SMILES,miR-21 FLuc,Rango complex inh,Rango dissoc inh,GLA inh pH 4.5
CC1CN(C(=O)/C(=C/c2ccco2)NC(=O)c2ccccc2)CC(C)O1 (centres undefined),-2%,0.7%,3%,nt
O=C(O)c1cc(C(=O)O)cc(-c2ccc(/C=c3/sc4nc5ccccc5n4c3=O)o2)c1,0%,?,?,5
CCOC(=O)CNC(=S)N(Cc1ccco1)Cc1ccccc1Cl,-2%,-3.2%,7%,nt
Fc1ccc(-n2c(-c3ccco3)nc3nc4ccccc4nc32)cc1,0%,-0.7%,-5%,?
Cc1ccc(-n2nnc3c(SCC(=O)NCc4ccco4)ncnc32)cc1,-3%,-1.6%,-3%,1
Cc1ccc(OCCn2c(NC(=O)c3ccco3)nc3ccccc32)cc1,-4%,-5.2%,6%,-1

# Remaining list, next part
SMILES,miR-21 FLuc,Rango complex inh,Rango dissoc inh,GLA inh pH 4.5
CCc1ccc2c(c1)C(=O)C[C@]1(CCC[C@H](C)C1)O2,nt,4.2%,-10%,nt
CCCCN(CC)CCNC(=O)c1cc2c(=O)n(CC)c3ccccc3c2s1,1%&5%,1.7%,27%,nt
CCCNC(=O)c1cc(S(=O)(=O)N2CCCCC2)ccc1N1CCOCC1,nt,0.5%,?,nt
CCOC(=O)c1c(-c2ccco2)csc1N,-17%,0.5%,7%,-2
CCOC(=O)CS(=O)(=O)c1ccc(O)cc1,4%,0.4%,0%,0
CCOc1ccc2nc(N3CCC(C(=O)N4CCN(c5ccccn5)CC4)CC3)sc2c1,10%,-2.4%,0%,-1
Cc1ccc(-c2ccc(/C=N/O)o2)cc1[N+](=O)[O-],-69%,-0.5%,6%,-13
COc1cc(/C=N/N2CCN(c3ccccc3)CC2)ccc1OC(C)=O,-13%,-0.2%,-5%,nt
Cc1csc(NC(=O)CSc2nnc(-c3ccc(Cl)cc3)n2N)n1,-7%,-1.5%,-6%,3
C[N+](C)(C)CCOC(=O)CCC(=O)OCC[N+](C)(C)C,nt,-1.9%,21%,-2
CN(Cc1ccc(Cl)cc1)C(=O)c1cc(S(=O)(=O)N2CCOCC2)ccc1N1CCCC1,nt,-6.1%,-1%,nt
C=CC(=O)Nc1sc2c(c1C(N)=O)CCCC2,nt,?,10%,nt
O=C(NCc1nnc(SCC(=O)N2CCN(c3ccccc3)CC2)o1)c1c(F)cccc1Cl,6%,-1.7%,0%,nt
O=C1C(Cc2c[nH]c3ccccc23)NC(=S)N1C1CCCCC1 (centres undefined),-1%,1.4%,5%,-3
CCCSc1nc(C)c(C(C)=O)cc1C#N,-4%,1.6%,-4%,0
CC1CCN(Cc2nnnn2CCCC(=O)N(C)C(C)c2ccccn2)CC1 (centres undefined),-2%,-2.5%,18%,nt
CC(/C=N/NC(=O)c1ccccn1)=C\c1ccco1,-50%,-5.1%,5%,-2
CCCOc1ccc(C(O)(CCC)CCN2CCCCC2)cc1 (centres undefined),-5%,-0.2%,-1%,-1
Cc1cccn2c(=O)c3cc(C(=O)NCc4ccc(F)cc4)c(=N)n(CCCN4CCOCC4)c3nc12,nt,?,?,nt
COc1ccc(-c2[nH]ncc2CNCCn2cccn2)c(F)c1,0%,0.6%,1%,7

# Some of the compounds tested (hit frequency here may not be typical).
